From PubChem
Measles inh = inhibitors of measles virus growth in infected cells | 33,000 tested, 0.1% active | infected Vero cells, GFP fluorescence, 64 h; hits give low values | z-score (no concentration beside the values);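 active means z-score under -3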;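 further: score is relative to mean and SD of the compound wells of a plate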
Numbers without * were called inactive. This is a subset, so the mix of outcomes need not match the whole.

SMILES	Measles inh
COC(=O)c1c(NC(=O)CCCOc2ccc(Cl)cc2)sc2c1CCC(C)C2 (configuration not stated)	-0.11
COc1cccc(C(c2c(C)[nH][nH]c2=O)c2c(C)[nH][nH]c2=O)c1OC	-0.03
COc1ccc(CCN2C(=O)CC(C(=O)Nc3ccccc3OC)SC2=Nc2ccc(F)cc2)cc1 (configuration not stated)	1.1
O=C(CSc1nc2ccsc2c(=O)n1CCc1ccccc1)c1ccc(F)cc1	0.03
COc1ccc(C2C(C(=O)Nc3nc4ccccc4s3)CCC(=O)N2c2ccc(OC)cc2)cc1 (configuration not stated)	-0.73
COc1ccc(-c2c(C#N)c(SCc3csc(C)n3)nc3c2C(=O)CC(C)(C)C3)cc1	0.58
Cc1ccc(C2/C(=C(\O)c3ccccc3)C(=O)C(=O)N2c2ncccn2)cc1 (configuration not stated)	-1
COc1ccccc1C1C(C(C)=O)=C(O)C(=O)N1c1nc2ccccc2s1 (configuration not stated)	-0.78
CCC(=O)N1CCc2cc(S(=O)(=O)NCCc3ccc(Cl)cc3)ccc21	-0.72
O=C(c1noc2c1CCCC2)N1CCc2ccccc2C1	-0.9
CCOc1ccc(C2C(C(=O)OCCOc3ccccc3)=C(C)NC3=C2C(=O)CCC3)cc1 (configuration not stated)	-0.14
O=C(NCC1CCCO1)c1ccc(Cl)c([N+](=O)[O-])c1 (configuration not stated)	0.7
CCc1ccc(-c2cc(O)cc3sc(=O)oc23)cc1	0.89
CCOC(=O)c1cc(C#N)c(SCC#N)nc1C	0.13
COc1ccc(N2CCCC2=N)c(OC)c1	-0.26
COC(=O)c1ccc(NS(=O)(=O)c2ccc3[nH]c(=O)c(=O)[nH]c3c2)cc1	2
CCOC(=O)c1cnn(-c2ccccc2)c1NC(=O)c1cccc(F)c1	0.36
COCCNc1cc(C)nc2ccccc12	-0.53
Cc1ccccc1CSC1=NCCN1C(=O)c1ccc(OC(C)C)cc1	-0.91
Cc1ccc(OCCSc2nc3ccccc3[nH]2)cc1	-0.49

In a second layout: entries from further up.
canonical_smiles: CCc1ccc(-c2cc(O)cc3sc(=O)oc23)cc1
- Measles inh: 0.89
canonical_smiles: CCOC(=O)c1cc(C#N)c(SCC#N)nc1C
- Measles inh: 0.13

(continued)
SMILES	Measles inh
Cc1ccn2c(-c3csc(Nc4ccc(N(C)C)cc4)n3)c(C)nc2c1	-0.31
COc1cccc(CNC(=O)C2CCC(Cn3c(=S)[nH]c4ccsc4c3=O)CC2)c1 (configuration not stated)	0.2
COc1ccc(C2CC(=O)C3=C(C2)Nc2ccccc2N(C(=O)c2cccs2)C3c2cccc(F)c2)cc1 (configuration not stated)	1
CCC(=O)N1CCc2cc(Br)cc(S(=O)(=O)N3CCCC(C(=O)Nc4ccc(C)cc4)C3)c21 (configuration not stated)	2.3
CN1CC(=O)Nc2ccc([N+](=O)[O-])cc2C1=O	-0.1
Nc1nc(-c2ccccc2O)nc2c1c(=O)oc1ccccc12	0.95
O=C(NC1CCCCC1)c1cc(-c2ccc(F)cc2)on1	0.34
CCOc1ccc2nc(NC(=O)CCC(=O)OCC(F)(F)F)sc2c1	0.17
O=C(CN1C(=O)c2ccccc2C1=O)Nc1ccccc1Br	1
CCOC(=O)C1=CSC2(S1)C(C(=O)OCC)=CSC1=C2c2ccccc2N(CC)C1(C)C (configuration not stated)	-0.33
O=C(O)c1ccccc1C(=O)Nc1cc([N+](=O)[O-])ccc1F	2.3
CCCOc1ccc(C2C(C(=O)OCc3ccccc3)=C(C)N=C3SC(C)C(=O)N32)cc1 (configuration not stated)	-1.3
Brc1ccc(-c2nc(N3CCCCCC3)c3ccccc3n2)cc1	-1
O=C(NCc1ccccc1Cl)c1c(O)c2cccc3c2n(c1=O)CCC3	1
Cc1cccc2nc(-c3cccs3)c(Nc3ccccc3)n12	-0.83
Cc1ccc(-c2nn(C)c(=O)c3ccccc23)cc1S(=O)(=O)NC(C)c1ccccc1 (configuration not stated)	0.05
Cc1cc(C)c(S(=O)(=O)NC2=CC(=NCc3ccccc3)C(=O)c3ccccc32)c(C)c1	-0.67
COc1ccc(NC(=O)c2sc3ncnc(N(C)c4ccccc4)c3c2C)cc1Cl	1.5
O=c1c2cc(N3CCOCC3)ccc2[nH]c(=S)n1CCCN1CCCCC1	-1.5
CCOc1ccc(-n2c(=O)c3c(C)c(C)sc3n(CC(=O)NCc3ccc(C)cc3)c2=O)cc1	-0.06
CCCCC1CCC(C(=O)Oc2ccc(C(C)=O)cc2)CC1 (configuration not stated)	-0.05
Nc1ccc(Nc2ccccc2N)cc1	0.25
CC1(c2ccc(Cl)cc2)CC(C)(C)N(C(=O)CSC#N)c2ccccc21 (configuration not stated)	-0.1
Cc1ccc(C)c(N2CCN(C(=O)Cn3c(=O)n(CC4CCCO4)c(=O)c4ccccc43)CC2)c1 (configuration not stated)	-0.01
CCCOC(=O)c1ccc(NC(=O)c2ccccc2OC)cc1	-0.96
COc1ccc(NC(=O)C(c2ccc(C)cc2)N(C)C(=O)Cc2cccs2)cc1 (configuration not stated)	0.14
COc1cccc(C=Nc2ccc3oc(-c4cccc(F)c4)nc3c2)c1O	-0.4
O=C(Nc1ccc(NC(=O)c2ccccc2F)cc1)c1cccs1	0.2
O=C(COC(=O)c1ccccc1Cl)c1ccc([N+](=O)[O-])cc1	-0.1
O=C(NC1CCCCCC1)c1ccc(CSCc2cccc(Cl)c2)o1	-0.87
CC1CCC(NC(=O)CCC(=O)Nc2nc(-c3cc4ccccc4oc3=O)cs2)CC1 (configuration not stated)	-0.41
COCCNC(=O)c1nn(-c2ccccc2OC)c(=O)c2ccccc12	-0.73
COc1ccccc1CN1CCN(Cc2c[nH]c3ccccc23)CC1	0.58
O=C(Nc1cccc(NS(=O)(=O)c2ccc(CCCl)cc2)c1)c1ccccc1	-0.09
CCOC(=O)c1ccc(NCc2ccc(N(C)C)cc2)cc1	-0.38
COc1ccccc1N(CC(=O)Nc1ccc(C)c(Cl)c1)S(=O)(=O)c1ccc(C)cc1	-0.67
O=C(NCCc1ccccc1)c1ccc2c(=O)n(-c3ccc(F)cc3)c(=S)[nH]c2c1	0.48
CC(C)Sc1nc2c([nH]c3ccccc32)c(=O)n1-c1ccc(F)cc1	0.04
COc1ccc(CNC(=O)C2CCC(CNS(=O)(=O)c3cccs3)CC2)cc1 (configuration not stated)	-1
CCOC(=O)c1c(C)oc2c1c1c(c3ccccc32)OCN(Cc2ccco2)C1	0.53
CC(O)c1no[n+]([O-])c1C(C)O (configuration not stated)	-0.32
CCOC(=O)c1cnc2ccc(Cl)cc2c1Nc1ccc2c(c1)OCCO2	-0.29
COc1ccc2cc3cc(C(=O)Nc4cccc(C(F)(F)F)c4)sc3nc2c1	1.2
O=c1nc2n(-c3ccc([N+](=O)[O-])cc3)c3ccccc3cc-2c(=O)[nH]1	0.5
CC(=O)N1c2c(cc(Br)cc2S(=O)(=O)Nc2cccc(Cl)c2)CC1C (configuration not stated)	-0.55
Cc1ccc(CNC(=O)c2c[nH]n3c(=O)c(Cc4ccc(Cl)cc4)c(C)nc23)cc1	-0.91
O=C(Nc1ccc(Cl)cc1)c1ccc(-n2cnnn2)cc1	-0.31
O=C1c2ccccc2-c2nnc3c(c21)CCCCCC3	-0.61
N#Cc1cc(Oc2ccc(OCc3ccccc3)cc2)nc2ccccc12	-1
Cc1ccc(CNC(=O)C2CCN(c3nc4ccccc4[nH]3)CC2)cc1	-0.43
Cc1cccc(N2C(=O)C3C4C=CC(C4=C4C5CC6CC(C5)CC4C6)C3C2=O)c1 (configuration not stated)	-1.2
Cc1ccc(OCC(=O)Nc2ccc(C)c(Cl)c2)cc1C	0.2
CCOC(=O)c1sc2[nH]c(=S)n(Cc3cccc(Cl)c3)c(=O)c2c1C	-0.64
Cc1cc(Nc2ccc(Br)cc2)n2ncnc2n1	0.51
COc1ccc(OC)c(N(CC(=O)Nc2ccc(Br)cc2)S(=O)(=O)c2ccccc2)c1	-0.49
O=C(Cn1c(=S)[nH]c2ncccc2c1=O)NC1CC1	1.1
CSc1ccc(C2C(C(=O)OCc3ccccc3)=C(C)NC3=C2C(=O)CCC3)cc1 (configuration not stated)	0.13
Cc1cc([N+](=O)[O-])ccc1NC(=O)c1cc2ccccc2o1	-0.57
COC(C#CC(C(C)C)N(C)C)(c1ccccc1)c1ccccc1 (configuration not stated)	0.8
Cc1ccc(N(CCCCN2C(=O)c3ccccc3C2=O)C(=O)c2cccc(Cl)c2)cc1	0.11

The listing continues:
SMILES	Measles inh
Nc1c(C(=O)c2ccc(Br)cc2)sc2[nH]c(=O)c(C(=O)O)cc12	1.1
CCc1ccc2[nH]c(C)c(CN(C)C3CCCCC3)c(=O)c2c1	1.7
COc1ccc2oc(C(O)c3c(C)oc4ccc(OC)cc34)cc2c1 (configuration not stated)	-0.08
CCOc1ccc(-c2cc(C)c3c(ccc4ccccc43)n2)cc1	2
Clc1cnc(C(Cl)(Cl)Cl)c(Cl)c1Cl	-1.8
CCOc1cccc(C2Nc3ccccc3NC3=C2C(=O)CC(c2ccc(Cl)cc2)C3)c1 (configuration not stated)	2.7
CCOc1ccc(Nc2nc(-c3ccc([N+](=O)[O-])cc3)nc3ccccc23)cc1	0.38
CCCCNc1cc(=O)n(C)c(=O)n1C	-1.1
CC(C)OC(=O)c1c(NC(=O)c2cc([N+](=O)[O-])nn2Cc2ccccc2)sc2c1CCCC2	0.96
CCOC(=O)C1=C(C)NC(=S)N(C(C)=O)C1c1ccccc1F (configuration not stated)	-0.98
COc1ccc(/C(O)=C2\C(=N)N(c3ccccc3Cl)C3=C(C(=O)CCC3)C2c2ccc3c(c2)OCO3)cc1 (configuration not stated)	-1.4
CCOc1ccc(NC(=O)CCN2CCOCC2)cc1	0.19
CC(=O)c1c(C)oc2c(Br)cc(NS(=O)(=O)c3cc(C)c(C)cc3C)cc12	0.11
COc1ccc(CNC(=O)C2CC(=O)N(c3ccc(OCc4ccccc4Cl)cc3)C2)cc1 (configuration not stated)	0.66
CCOC(=O)c1c(C)oc2c1cc(NS(=O)(=O)c1ccc(Cl)c(C)c1)c1ccccc12	-0.59
COc1ccc([N+](=O)[O-])cc1C1NN=C(c2cccc3ccccc23)S1 (configuration not stated)	-0.5
O=C(CSc1ncnc2sc3c(c12)CCC3)NCCc1ccccc1	0.71
Cc1cc2ccccc2n1CCNC(=O)c1ccccc1	1
CC1CCN(S(=O)(=O)N2CCC(C(=O)NCCN(C)C)CC2)CC1	-0.27
COC(=O)C1=C(N)OC2=C(C(=O)CC(C)(C)C2)C1c1cccs1 (configuration not stated)	0.9

Part of the list above in order of molar mass, descending:
SMILES	Measles inh
COc1ccc(/C(O)=C2\C(=N)N(c3ccccc3Cl)C3=C(C(=O)CCC3)C2c2ccc3c(c2)OCO3)cc1 (configuration not stated)	-1.4
CC(C)OC(=O)c1c(NC(=O)c2cc([N+](=O)[O-])nn2Cc2ccccc2)sc2c1CCCC2	0.96
CCOC(=O)c1c(C)oc2c1cc(NS(=O)(=O)c1ccc(Cl)c(C)c1)c1ccccc12	-0.59
CC(=O)c1c(C)oc2c(Br)cc(NS(=O)(=O)c3cc(C)c(C)cc3C)cc12	0.11
CCOc1cccc(C2Nc3ccccc3NC3=C2C(=O)CC(c2ccc(Cl)cc2)C3)c1 (configuration not stated)	2.7
Nc1c(C(=O)c2ccc(Br)cc2)sc2[nH]c(=O)c(C(=O)O)cc12	1.1
CCOc1ccc(Nc2nc(-c3ccc([N+](=O)[O-])cc3)nc3ccccc23)cc1	0.38
O=C(CSc1ncnc2sc3c(c12)CCC3)NCCc1ccccc1	0.71
CC1CCN(S(=O)(=O)N2CCC(C(=O)NCCN(C)C)CC2)CC1	-0.27
COc1ccc2oc(C(O)c3c(C)oc4ccc(OC)cc34)cc2c1 (configuration not stated)	-0.08
CCOC(=O)C1=C(C)NC(=S)N(C(C)=O)C1c1ccccc1F (configuration not stated)	-0.98
COC(=O)C1=C(N)OC2=C(C(=O)CC(C)(C)C2)C1c1cccs1 (configuration not stated)	0.9
CCc1ccc2[nH]c(C)c(CN(C)C3CCCCC3)c(=O)c2c1	1.7
Clc1cnc(C(Cl)(Cl)Cl)c(Cl)c1Cl	-1.8
Cc1cc2ccccc2n1CCNC(=O)c1ccccc1	1
CCCCNc1cc(=O)n(C)c(=O)n1C	-1.1

Continuation.
SMILES	Measles inh
COc1ccccc1Cn1c(=S)[nH]c2cc(C(=O)N3CCOCC3)ccc2c1=O	-0.71
COc1ccc(OC)c(C2C3=C(CC(C)(C)CC3=O)NC3=C2C(=O)c2ccccc23)c1 (configuration not stated)	-1.4
CC(=O)Oc1ccc(C2Nc3c(C(=O)c4ccccc4)cc(Cl)cc3C3C=CCC32)cc1 (configuration not stated)	1.3
COc1ccc2nc3sc(C(=O)NCCCN4CC(C)CC(C)C4)cc3cc2c1 (configuration not stated)	-1.3
O=C1CCCC2=C1C(c1ccccc1[N+](=O)[O-])n1c(nc3ccccc31)N2 (configuration not stated)	0.16
O=C(C1CC1)N1CCc2cc(Br)cc(S(=O)(=O)NCc3ccc(F)cc3)c21	-0.47
Cc1ccc(C)c(CN2C(=O)C(C(C)C(=O)NCc3ccccc3)Sc3ccccc32)c1 (configuration not stated)	0.47
O=C(CSc1nnc2ccc3ccccc3n12)NCC1CCCO1 (configuration not stated)	1.2
COc1ccc(OC)c(NC(=O)c2c(NCc3ccncc3)sc3c2CCC(C)C3)c1 (configuration not stated)	-0.02
CCOC(=O)c1cnc2ccc(C(=O)OC)cc2c1Nc1ccc(O)cc1	0.74
Cn1c(=O)[nH]c(=O)c2c1nc(SCCO)n2CCc1ccccc1	-0.4
CCC(=O)N1c2ccc(S(=O)(=O)NCCN(C)Cc3ccccc3)cc2CC1C (configuration not stated)	1.3
COc1ccc(-c2cc(C(=O)NCCCn3ccnc3)no2)cc1OC	1.3
COc1ccc(Cl)cc1NC(=O)c1cc2cccc(OC)c2oc1=Nc1ccc(C(=O)O)cc1	1.4
O=C(c1cccn2c(=O)c3c4c(sc3nc12)CCCC4)N1CCC(Cc2ccccc2)CC1	1.1
Cc1ccc(CNC(=O)CCC2Nc3c4ccccc4nc(=S)n3C2=O)o1 (configuration not stated)	-1.1
COc1cc(NC(=O)c2cc3cc4ccc(Cl)cc4nc3o2)cc(OC)c1OC	0.71
C=CCNC(=O)CN(c1ccc(Cl)cc1)S(=O)(=O)c1ccc(OC)cc1	-0.79
CCCNC(=O)c1cc2nc(-c3ccc(Br)cc3)cc(C(F)(F)F)n2n1	-0.49
COc1ccc(OC)c(NC(=O)c2sc3nc(C)nc(N4CCOCC4)c3c2C)c1	0.9
